Bioassay records as filed in PubChem BioAssay.
FGF22 binding – shifts melting point of recombinant human FGF22; recombinant FGF22 thermal shift, SYPRO orange fluorescence; percent of sucrose octasulfate shift, DMSO zero; calls only at 9.99 µM; Q9HCT0; 1.5% of 340,000 active;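 active means melting point raised past a set limit in the mean and every replicate; three in four hits are not shown here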
Target sequence (Q9HCT0 whole entry, looked up): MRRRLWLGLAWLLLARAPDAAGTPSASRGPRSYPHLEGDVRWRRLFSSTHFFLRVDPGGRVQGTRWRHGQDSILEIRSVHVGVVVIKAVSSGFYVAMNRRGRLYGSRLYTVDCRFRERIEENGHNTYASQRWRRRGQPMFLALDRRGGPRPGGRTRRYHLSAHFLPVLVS
Calls only; i = inactive. This is a subset; the hit share may differ from the screen's.

SMILES	FGF22 binding
C[C@H]1CN([C@@H](C)CO)C(=O)c2cc(NS(=O)(=O)c3ccc(F)cc3)ccc2O[C@@H]1CN(C)Cc1ccc(Cl)c(Cl)c1	i
CN(C)c1ccc2c(c1)[C@@H]1C[C@@H](CC(=O)NCc3cccc(F)c3)O[C@@H](CO)[C@@H]1O2	i
N#Cc1ccc(-c2ccc3c(c2)[C@H]2[C@H](CCN2C(=O)C2CC2)[C@H](CO)N3)cc1	i
C[C@H]1CN([C@@H](C)CO)C(=O)c2cccc(NC(=O)C3CC3)c2O[C@@H]1CN(C)C(=O)Nc1ccc(F)cc1	i
Cc1cccc(-c2ccc([C@H]3[C@@H](CO)N4CCCCN(C(=O)c5ccncc5)C[C@H]34)cc2)c1	i
CNC[C@H]1OCCCC[C@@H](C)Oc2ccc(N)cc2C(=O)N([C@@H](C)CO)C[C@H]1C	i
C[C@@H]1CN([C@H](C)CO)C(=O)c2cc(NC(=O)Nc3ccc(F)cc3)ccc2O[C@H]1CN(C)S(=O)(=O)c1ccc(Cl)cc1	i
C[C@H]1CN([C@@H](C)CO)S(=O)(=O)c2ccc(-c3cncnc3)cc2O[C@H]1CN(C)C(=O)c1cccc(F)c1	i
COc1ccc2c3c(n(C)c2c1)[C@H](CO)N(C(=O)Nc1ccc(F)cc1)CC31CN(Cc2ccccc2F)C1	i
C[C@@H]1CN([C@H](C)CO)C(=O)c2cc(NC(=O)c3ccccc3)ccc2O[C@@H](C)CCCCO[C@H]1CN(C)S(=O)(=O)c1cccs1	i
COc1ccc2c3c(n(C)c2c1)[C@@H](CO)NCC31CCN(C(=O)c2ccccc2)CC1	i
CCCN1C[C@@H](C)[C@@H](OC)CN(C)C(=O)c2cc(NC(=O)c3ccccc3F)ccc2OC[C@@H]1C	i
CCCN(C)C[C@@H]1OCCCC[C@H](C)Oc2ccc(NC(=O)CCC(F)(F)F)cc2C(=O)N([C@H](C)CO)C[C@@H]1C	i
COc1ccc2c3c([nH]c2c1)[C@@H](CO)N(C(=O)C1CCOCC1)CC31CCN(S(C)(=O)=O)CC1	i
CC(C)NC(=O)N(C)C[C@H]1Oc2c(NC(=O)Nc3ccc(C(F)(F)F)cc3)cccc2C(=O)N([C@@H](C)CO)C[C@@H]1C	i
Cc1nn(C)cc1NC(=O)C[C@H]1CC[C@H]2[C@@H](COc3ccc(NC(=O)Nc4cccc(Cl)c4)cc3C(=O)N2C)O1	i
C[C@@H]1CN([C@@H](C)CO)S(=O)(=O)c2ccc(C#CC(C)(C)O)cc2O[C@@H]1CN(C)Cc1ccc(F)cc1	i
CCCN(C)C[C@H]1Oc2ncc(C#Cc3ccccc3OC)cc2C(=O)N([C@H](C)CO)C[C@H]1C	i
Cc1noc(C)c1NC(=O)Nc1ccc2c(c1)C(=O)N([C@H](C)CO)C[C@H](C)[C@@H](CN(C)S(C)(=O)=O)OCCCC[C@@H](C)O2	i
Cc1ccccc1S(=O)(=O)N1[C@H](C#N)[C@H](c2ccc(-c3ccc(F)cc3)cc2)[C@H]1CO	i
O=C(C[C@@H]1C=C[C@H](NC(=O)CC2CC2)[C@@H](CO)O1)NCc1ccc(Cl)cc1	i
Cc1ccc(-c2ccc([C@H]3[C@@H](CO)N4CCCCN(Cc5ccccn5)C[C@H]34)cc2)cc1	i
COc1ccccc1CN1C[C@@H](C)[C@H](OC)CN(C)C(=O)c2ccc(NC(C)=O)cc2OC[C@H]1C	i
C[C@@H]1CN([C@H](C)CO)C(=O)Cc2cc(NC(=O)CCC(F)(F)F)ccc2O[C@@H]1CN(C)Cc1ccc(Cl)c(Cl)c1	i
COc1ccccc1-c1cn(CC[C@H]2CC[C@H](NC(=O)C3CCOCC3)[C@H](CO)O2)nn1	i

Next section (six carried over from the part before).
SMILES	FGF22 binding
Cc1ccccc1S(=O)(=O)N1[C@H](C#N)[C@H](c2ccc(-c3ccc(F)cc3)cc2)[C@H]1CO	i
O=C(C[C@@H]1C=C[C@H](NC(=O)CC2CC2)[C@@H](CO)O1)NCc1ccc(Cl)cc1	i
Cc1ccc(-c2ccc([C@H]3[C@@H](CO)N4CCCCN(Cc5ccccn5)C[C@H]34)cc2)cc1	i
COc1ccccc1CN1C[C@@H](C)[C@H](OC)CN(C)C(=O)c2ccc(NC(C)=O)cc2OC[C@H]1C	i
C[C@@H]1CN([C@H](C)CO)C(=O)Cc2cc(NC(=O)CCC(F)(F)F)ccc2O[C@@H]1CN(C)Cc1ccc(Cl)c(Cl)c1	i
COc1ccccc1-c1cn(CC[C@H]2CC[C@H](NC(=O)C3CCOCC3)[C@H](CO)O2)nn1	i
CO[C@@H]1CN(C)C(=O)c2ccc(NC(=O)c3ccc4c(c3)OCO4)cc2OC[C@@H](C)NC[C@@H]1C	i
C[C@@H]1CCCCO[C@@H](CN(C)S(=O)(=O)c2cccs2)[C@H](C)CN([C@@H](C)CO)C(=O)c2cc(NS(C)(=O)=O)ccc2O1	i
COc1ccc(CN(C)C[C@H]2OCCCC[C@H](C)Oc3ccc(NS(=O)(=O)c4ccc(OC)cc4)cc3C(=O)N([C@@H](C)CO)C[C@@H]2C)cc1	i
O=C(C[C@H]1C[C@@H]2c3cc(NC(=O)Nc4ccccc4)ccc3O[C@@H]2[C@@H](CO)O1)NC1CCCC1	i
Cc1noc(C)c1S(=O)(=O)Nc1ccc2c(c1)CC(=O)N([C@H](C)CO)C[C@H](C)[C@@H](CN(C)Cc1ccc3c(c1)OCO3)O2	i
C[C@@H]1CN([C@@H](C)CO)C(=O)c2cc(NC(=O)Nc3ccc(F)cc3)ccc2O[C@H]1CN(C)Cc1ccc(Cl)c(Cl)c1	i
C[C@@H]1CN([C@H](C)CO)C(=O)c2cccc(NC(=O)c3ccncc3)c2O[C@H]1CN(C)Cc1ccncc1	i
O=C(C[C@@H]1CC[C@H](NC(=O)CN2CCOCC2)[C@H](CO)O1)NCCc1ccccc1	i
O=C(C[C@H]1CC[C@H](NC(=O)c2ccccc2)[C@@H](CO)O1)NCc1ccncn1	i
CC(=O)N(C)C[C@H]1[C@H](c2ccc(C3=CCCCC3)cc2)[C@H](CO)N1CC1CC1	i
CO[C@H]1CN(C)C(=O)c2ccc(NS(=O)(=O)c3ccc(C)cc3)cc2OC[C@@H](C)N(C)C[C@@H]1C	i
CCCc1cn(CC[C@H]2CC[C@H](NC(=O)C3CCOCC3)[C@H](CO)O2)nn1	i
CN(C)C(=O)C[C@@H]1C[C@H]2c3cc(NC(=O)NC4CCCC4)ccc3O[C@H]2[C@H](CO)O1	i
C[C@@H]1CN([C@@H](C)CO)C(=O)c2cc(C3=CCCC3)cnc2O[C@H]1CN(C)Cc1cccnc1	i
C/C=C/c1ccc([C@H]2[C@@H](CO)N3CCCCN(C(=O)Nc4cc(F)ccc4F)C[C@@H]23)cc1	i
C[C@@H]1CN([C@@H](C)CO)C(=O)Cc2cc(NC(=O)Cn3cnnn3)ccc2O[C@@H]1CN(C)Cc1ccncc1	i
C[C@@H]1CN([C@@H](C)CO)C(=O)c2cccc(NC(=O)Nc3ccc(F)cc3)c2O[C@@H]1CN(C)Cc1ccncc1	i
CO[C@H]1CN(C)C(=O)c2ccc(NC(=O)Nc3ccccc3)cc2OC[C@@H](C)N(C(=O)CC2CC2)C[C@@H]1C	i
C[C@@H](NC(=O)[C@@H]1[C@@H](CO)[C@@H]2Cn3c(cccc3=O)[C@@H]2N1S(C)(=O)=O)c1ccccc1	i
Cc1ccc(S(=O)(=O)Nc2ccc3c(c2)C(=O)N([C@@H](C)CO)C[C@@H](C)[C@@H](CN(C)S(=O)(=O)c2ccc(C)cc2)OCCCC[C@H](C)O3)cc1	i
COc1ccc(S(=O)(=O)N2CCCCN3[C@H](CO)[C@@H](c4ccc(C#CC(C)C)cc4)[C@H]3C2)cc1	i
C[C@H](CO)N1C[C@H](C)[C@@H](CN(C)C(=O)c2ccccc2)Oc2ncc(Br)cc2C1=O	i
Cc1ccc(S(=O)(=O)N[C@H]2CC[C@@H](CCNC(=O)c3ccccc3F)O[C@H]2CO)cc1	i
CCC(=O)N(C)C[C@@H]1Oc2cc(-c3cccc(F)c3)ccc2S(=O)(=O)N([C@H](C)CO)C[C@H]1C	i
COc1cccc(-c2cnc3c(c2)C(=O)N([C@@H](C)CO)C[C@H](C)[C@@H](CN(C)CC2CCOCC2)O3)c1	i

Further results follow.
SMILES	FGF22 binding
CNC(=O)C[C@@H]1CC[C@@H]2[C@H](COc3ccc(NC(=O)c4cc(F)cc(F)c4)cc3C(=O)N2C)O1	i
Cc1ccccc1-c1ccc2c(c1)O[C@H](CN(C)C(=O)c1ccccn1)[C@H](C)CN([C@H](C)CO)S2(=O)=O	i
CCC(=O)N1C[C@@H]2[C@H](c3ccccc31)[C@@H](CO)N2Cc1ccccc1Cl	i
CCNC(=O)[C@H]1[C@H](CO)[C@H]2Cn3c(ccc(-c4ccc(F)cc4)c3=O)[C@@H]1N2C(=O)c1ccccn1	i
C[C@@H]1CN([C@H](C)CO)C(=O)Cc2cc(NC(=O)Cc3cn(C)c4ccccc34)ccc2O[C@H]1CN(C)S(=O)(=O)c1ccc(F)cc1	i
CCNC(=O)[C@@H]1[C@@H](CO)[C@@H]2Cn3c(ccc(C4=CCCC4)c3=O)[C@H]1N2C(=O)C1CC1	i
CC(C)NC(=O)N(C)C[C@H]1Oc2ccc(NC(=O)CCC(F)(F)F)cc2C(=O)N([C@@H](C)CO)C[C@@H]1C	i
C[C@H](CO)N1C[C@H](C)[C@@H](CN(C)C)OCCCC[C@H](C)Oc2ccc(NC(=O)C3CCCCC3)cc2C1=O	i
COc1ccccc1NC(=O)N[C@H]1CC[C@H](CCn2cc(C3(O)CCCC3)nn2)O[C@H]1CO	i
C[C@@H]1CN([C@@H](C)CO)C(=O)Cc2cc(NC(=O)CCCCCC(=O)Nc3ccccc3N)ccc2O[C@@H]1CN(C)Cc1ccc(-c2ccccc2)cc1	i
O=S1(=O)CCSC[C@@H](CNCc2ccco2)N1	i
C[C@H](CO)N1C[C@H](C)[C@@H](CN(C)C(=O)CN(C)C)Oc2cc(C#CC3CC3)ccc2S1(=O)=O	i
CCC(=O)N(C)C[C@H]1Oc2ncc(Br)cc2C(=O)N([C@H](C)CO)C[C@@H]1C	i
C[C@@H]1CCCCO[C@H](CN(C)C(=O)c2ccccc2)[C@H](C)CN([C@@H](C)CO)C(=O)c2cc(NC(=O)CCCCCC(=O)Nc3ccccc3N)ccc2O1	i
Cc1noc(C)c1NC(=O)N(C)C[C@@H]1Oc2ncc(C#Cc3ccccc3)cc2C(=O)N([C@H](C)CO)C[C@@H]1C	i
Cc1ccc(S(=O)(=O)N(C)C[C@@H]2Oc3ncc(C#Cc4ccccc4)cc3C(=O)N([C@H](C)CO)C[C@@H]2C)cc1	i
CC(C)CC#Cc1ccc([C@@H]2[C@H](CO)N3CCCCN(C(=O)Nc4ccccc4)C[C@@H]23)cc1	i
O=C(CC1CC1)Nc1ccc2c(c1)[C@@H]1C[C@H](CC(=O)N3CCOCC3)O[C@@H](CO)[C@@H]1O2	i
COc1ccc(S(=O)(=O)N(C)C[C@@H]2Oc3ccc(NC(=O)Cn4cnnn4)cc3C(=O)N([C@@H](C)CO)C[C@H]2C)cc1	i
CN(C[C@H]1[C@H](c2ccccc2)[C@@H](CO)N1CC1CC1)C(=O)c1ccc(F)cc1	i
CO[C@@H]1CN(C)C(=O)c2ccc(NC(=O)C3CCCC3)cc2OC[C@H](C)N(C)C[C@H]1C	i
C[C@H]1CN([C@@H](C)CO)C(=O)c2cc(-c3ccccc3F)cnc2O[C@H]1CN(C)C(=O)C1CCC1	i
CC(C)NC(=O)Nc1ccc2c(c1)CC(=O)N([C@H](C)CO)C[C@@H](C)[C@@H](CN(C)Cc1ccc(C(F)(F)F)cc1)O2	i
C[C@H]1CN([C@@H](C)CO)C(=O)c2cc(NS(=O)(=O)c3ccccc3)ccc2O[C@@H]1CN(C)S(=O)(=O)c1cn(C)cn1	i
O=C(C[C@H]1C[C@@H]2c3cc(NC(=O)NC4CCCC4)ccc3O[C@@H]2[C@@H](CO)O1)NC1CCCCC1	i

(listing goes on)
SMILES	FGF22 binding
COc1cccc(C(=O)N[C@@H](Cc2cccnc2)C(=O)N2CCC[C@H]2C(=O)NCc2ccccc2)c1	i
COc1ccccc1-c1ccc2n(c1=O)C[C@@H]1[C@@H](CO)[C@H](C(=O)N(C)C)N(C(=O)c3cccnc3)[C@H]21	i
CO[C@@H]1CN(C)C(=O)c2ccc(NC(=O)C3CCCC3)cc2OC[C@@H](C)N(C(=O)CC2CC2)C[C@H]1C	i
O=C(C[C@H]1C[C@H]2c3cc(NC(=O)C4CCC4)ccc3O[C@H]2[C@H](CO)O1)NCc1ccccc1F	i
CCCNC(=O)[C@@H]1[C@@H](CO)[C@@H]2Cn3c(ccc(/C=C/c4ccccc4)c3=O)[C@@H]2N1CC	i
O=C(CCN1CCCCC1)NCC[C@H]1CC[C@H](NC(=O)Nc2ccc(Cl)cc2)[C@@H](CO)O1	i
C[C@@H]1CN([C@@H](C)CO)C(=O)c2cccc(NS(=O)(=O)c3ccc(Cl)cc3)c2O[C@@H]1CN(C)Cc1ccncc1	i
CN(C)C(=O)C[C@H]1CC[C@@H](NC(=O)C2CCOCC2)[C@@H](CO)O1	i
COC(=O)C1=C(C)N(C)C(=NCc2ccccc2C(F)(F)F)NC1c1ccc(C(F)(F)F)cc1 (stereo not drawn)	i
C[C@H](CO)N1C[C@H](C)[C@@H](CN(C)Cc2ccc(Oc3ccccc3)cc2)Oc2ccc(NS(=O)(=O)c3ccc(Cl)cc3)cc2CC1=O	i

Part of the list above, with the structure last.
FGF22 binding	Structure
i	CN(C)C(=O)C[C@H]1CC[C@@H](NC(=O)C2CCOCC2)[C@@H](CO)O1
i	COC(=O)C1=C(C)N(C)C(=NCc2ccccc2C(F)(F)F)NC1c1ccc(C(F)(F)F)cc1 (stereo not drawn)
i	C[C@H](CO)N1C[C@H](C)[C@@H](CN(C)Cc2ccc(Oc3ccccc3)cc2)Oc2ccc(NS(=O)(=O)c3ccc(Cl)cc3)cc2CC1=O
